Marburg entry inh: inhibitors of Marburg virus binding or cell entry. hit rate 1.8% among 300,000. Potency, µM (top dose mostly 37.8 µM), inactives show at the highest dose activity change, negative = inhibition, hits mostly inhibitors. Marburg virus pseudotyped entry inhibition, cell reporter; control for the full effect not named in the record; about a third of the inactives were read at about 46 µM. AID 540276; active = well fitted inhibition curve with a large enough effect; inconclusive = small, poorly fitted or top-dose-only effect, or effect the other way; inactive = flat fitted curve, though single readings scatter; tested in HEK293 cells; about a fifth of its hits are not listed in these tables; further: on the % scale 0 is the no-effect control and ±100 the full control effect; luciferase read-out
LASV entry inh: blocks Lassa virus binding to or entry into cells. Lassa virus pseudotype entry inhibition, cell reporter; control for the full effect not named in the record. Potency, µM (top dose mostly 37.9 µM), inactives show top-dose activity change, negative = inhibition, hits mostly inhibitors. hit rate 1.2% among 300,000. AID 540256; active means well fitted inhibition curve with a large enough effect; inconclusive means small, poorly fitted or top-dose-only effect, or effect the other way; inactive means flat fitted curve, though single readings scatter; tested in HEK293 cells; further: on the % scale 0 is the no-effect control and ±100 the full control effect; nearly all actives have a fitted effect of over 50% in size; luciferase read-out
RE007 growth inh: less growth of the S. pombe RE007 Vpr strain | S. pombe RE007 Vpr strain, BacTiter-Glo ATP luminescence, 24 h; control for the full effect not named in the record | hit rate 0.21% among 360,000 | Potency, µM (highest dose often 92.2 µM), for inactives: at the highest dose activity change, negative = less growth; active = well fitted falling curve with a large enough effect; inconclusive = small, poorly fitted or top-dose-only effect; inactive = no such curve, though single readings can be large or run the other way;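 further: on the % scale 0 is the no-effect control and ±100 the full control effect; nearly all actives have a fitted effect of over 50% in size; the assay follows cell death caused by Vpr and the record does not say whether a fall means rescue or toxicity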
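Fission yeast RE007 carrying one integrated HIV-1 vpr copy, seeded at OD 0.01 in PMG+AL medium with 23 nL pinned compound. Grown 24 h at 30 degrees; viability read by BacTiter-Glo luminescence after 5 min.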
NS1 function inh: blocks influenza NS1 protein function | S. cerevisiae slowed by influenza A NS1, growth recovery by OD600 | Potency, µM (titrated, usually from 46.1 µM), for the others: at the top dose activity, positive = more growth | hit rate 0.4% among 270,000; further: actives are rising curves; nearly all actives have a fitted effect of over 50% in size
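OD600 was taken as the measure of yeast growth restored by compound in an NS1-expressing S. cerevisiae strain. Cells had been washed out of glucose medium and diluted 1:100 into galactose -URA medium, pH 6.0.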
SARS PLpro yeast: SARS-CoV PLP inhibition in yeast | S. cerevisiae expressing SARS-CoV PLpro, growth rescue; control for the full effect not named in the record | hit rate 0.19% among 330,000 | Potency, µM (doses to about 32.9 µM), for the others: at the top dose activity, positive = growth rescue; further: 0% is about no effect; nearly all actives have a fitted effect of over 55% in size; growth read by luminescence after 48 h
StopGo reporter: FMDV 2A StopGo reporter, luciferase signal; hit rate 1.2% among 410,000; Potency, µM (doses to about 57.9 µM), for the others: at the top dose signal change, negative = less light; human cells with a luciferase reporter of 2A StopGo recoding; control for the full effect not named in the record; active = well fitted falling curve with a large enough effect; inconclusive = small, poorly fitted or top-dose-only effect; inactive = no such curve, though single readings can be large or run the other way; tested in HEK293T cells; further: on the % scale 0 is the no-effect control and ±100 the full control effect; nearly all actives have a fitted effect of over 45% in size; luciferase light after 4 h
Cruzain Triton: inhibitors of Trypanosoma cruzi cruzain with detergent | P25779 | purified cruzain, Z-FR-AMC fluorescence, 0.01% Triton | Potency, µM, for the others: max response, negative = inhibition, usual class: inhibitors | hit rate 0.43% among 200,000 | AID 1478; active means well fitted curve in the direction sought with a large enough effect; inconclusive means small, poorly fitted or top-dose-only effect, or another doubt; inactive means no such curve, though single readings can be large; an effect the other way counts as inactive or inconclusive;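 further: plate controls were neutral wells for no effect and buffer without enzyme for full effect; nearly all actives have a fitted effect of over 40% in size; top concentration of the series not given in the record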
Target sequence (P25779 123-467 limits assumed): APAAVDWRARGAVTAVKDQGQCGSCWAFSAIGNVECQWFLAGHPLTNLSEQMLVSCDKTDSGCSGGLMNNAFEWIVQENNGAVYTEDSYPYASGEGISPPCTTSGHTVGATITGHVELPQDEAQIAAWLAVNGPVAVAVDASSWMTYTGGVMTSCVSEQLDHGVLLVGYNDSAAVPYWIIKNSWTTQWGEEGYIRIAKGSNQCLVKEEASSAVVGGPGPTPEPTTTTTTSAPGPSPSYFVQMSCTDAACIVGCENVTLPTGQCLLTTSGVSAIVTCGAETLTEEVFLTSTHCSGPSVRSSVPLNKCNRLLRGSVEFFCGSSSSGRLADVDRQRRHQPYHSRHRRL
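Read-out: AMC fluorescence (360 nm excitation, 450 nm emission), four reads over 2 min, first-to-third difference used. Conditions: cruzain 1.5 nM, Z-FR-AMC 2 uM, pH 5.5 acetate, 5 mM DTT, 0.01% Triton X-100.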
Cruzain inh noDet: blocks cruzain activity in detergent-free assay; purified cruzain, Z-FR-AMC fluorescence, no detergent; hit rate 2.3% among 200,000; AID 1476; Potency, µM, for the others: max response, negative = inhibition, actives largely listed as inhibitors; active means well fitted curve in the direction sought with a large enough effect; inconclusive means small, poorly fitted or top-dose-only effect, or another doubt; inactive means no such curve, though single readings can be large; an effect the other way counts as inactive or inconclusive;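 further: plate controls were enzyme without inhibitor for no effect and buffer without enzyme for full effect; nearly all actives have a fitted effect of over 40% in size; top concentration of the series not given in the record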
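Detergent-free condition (0.00005% Triton X-100) in acetate buffer pH 5.5 with DTT. 1.5 nM enzyme and compound were pre-mixed 15 min, then 2 uM Z-FR-AMC substrate added; reaction progress from fluorescence change between first and third reads (60 s).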
* hit, by the source's call; ? = inconclusive; nt = no result given; [ ] = another dose, or the depositor's remark. Unless noted, the call rests on the fitted dose curve; in most records, active means well fitted rising curve with a large enough effect; inconclusive means small, poorly fitted or top-dose-only effect; inactive means no such curve, though single readings can be large or run the other way. Potency means the concentration at half of the fitted maximal effect. Compounds were not picked by outcome; 4.7% or so of the library scored in one or more.

SMILES | Marburg entry inh | LASV entry inh | RE007 growth inh | NS1 function inh | SARS PLpro yeast | StopGo reporter | Cruzain Triton | Cruzain inh noDet
Cn1ncc(C(=O)N=S(C)(=O)c2ccccc2)c1[N+](=O)[O-] (stereo unspecified) | 3% | 5% | 6% | 2% | 1% | -4% | nt | nt
O=C1Nc2c(c(=O)[nH]c(=O)n2-c2ccc(F)cc2)C1(NS(=O)(=O)c1ccccc1)C(F)(F)F (stereo unspecified) | ? | -26% | 9% | 3% | 0% | 24% | nt | nt
Cc1cc([N+](=O)[O-])cc([N+](=O)[O-])c1NCC(C)C | -3%[46.1 µM] | 6%[46.1 µM] | -22% | -3% | 0% | ? | nt | nt
Cc1nnc(C)n1N1C(=O)c2cccc3cccc(c23)C1=O | -6% | -12% | -8% | 2% | 2% | -16% | -3.1% | -2%
Cc1ccc(S(=O)(=O)Nc2cc3c(cc2C#N)OCO3)cc1C(N)=O | 4%[46.1 µM] | 4%[46.1 µM] | 2% | 4% | 0% | 14% | nt | nt
CN(c1ccccc1)S(=O)(=O)c1cccc(NC(=O)CSc2nnc(N)s2)c1 | 18µM* | ? | -20% | 7% | 9% | ? | -2.5% | 0%
CCOCCCN(C(=O)c1ccco1)C(C(=O)NC1CCCC1)c1ccc(OC)cc1 (stereo unspecified) | 15%[46.1 µM] | nt | 10% | -2% | 1% | -1% | nt | nt
Cc1cccc(-n2c(=O)[nH]c3c(C(N)=O)nc(CC(C)C)nc32)c1 | ? | 0% | -6% | 3% | -7% | -16% | 2.5% | ?
CC(C)(C)c1ccc(C(=O)N2CC(=O)Nc3ccc(F)cc3C2c2ccc(F)cc2)cc1 (stereo unspecified) | ? | ? | nt | nt | nt | -18% | -8.5% | -1%
c1coc(-c2nnc3sc(-c4cccs4)nn23)c1 | 8% | -1% | 0% | -16% | -11% | -9% | -3.8% | -6%
CCCc1c(C(=O)Nc2ccc(F)cc2C)cnn1-c1ccccc1 | 1% | -13% | 4% | -40% | -2% | -17% | nt | nt
CC(Sc1nc2ccccc2c(=O)n1CCc1ccc(S(N)(=O)=O)cc1)C(=O)NC(N)=O (stereo unspecified) | -12%[46.1 µM] | -12% | 7% | 13% | 2% | 2% | nt | nt
Cn1c(SCC(=O)Nc2cccc(S(=O)(=O)NC3=NCCCCC3)c2)nnc1-c1ccncc1 | 3% | -2% | 23% | nt | 2% | -13% | nt | nt
COc1ccc(NC(=O)CCN2C(=O)c3ccc([N+](=O)[O-])cc3C2=O)c(OC)c1 | 33% | 17% | -20% | 1% | -7% | -6% | 0.2% | 8%
COCCNC(=S)N1CCN(C(c2ccccc2)c2ccccc2)CC1 | -23%[46.1 µM] | -25%[46.1 µM] | -8% | -22% | 3% | 56%[activator] | nt | nt
CCN(c1ccccc1C)S(=O)(=O)c1cc2c3c(c1)CCC(=O)N3CCC2 | nt | nt | -10% | 2% | -2% | -8% | nt | nt
COc1ccccc1NC(=O)c1cc2c(CO)cnc(C)c2oc1=Nc1ccc(OC)c(OC)c1 | nt | nt | -2% | 1% | -2% | ? | nt | nt
Cc1cc(N/N=C/c2ccc(O)cc2O)nc(-c2ccccc2O)n1 | ? | ? | -1% | 13% | 8% | 0% | -13% | -14%
COC(=O)Cn1c(=O)c2c(nc3n2CC(C)CN3CCc2ccccc2)n(C)c1=O (stereo unspecified) | nt | nt | -2% | -1% | 1% | ? | nt | nt
COc1ccc(CNC(=O)CCc2nc(-c3ccccc3F)no2)c(OC)c1 | 31% | 6% | 2% | 1% | -7% | -8% | -0.1% | -4%
Cc1cccc(OCC(=O)NNC(=O)CCCCC(=O)NNC(=O)COc2cccc(C)c2)c1 | nt | nt | 26% | 24% | 1% | 22% | nt | nt
Cc1ccccc1OCc1occc1C(=O)Nc1cccc(-n2cnnn2)c1 | nt | nt | -3% | 9% | -1% | -23% | nt | nt
CCc1nc2sc3ccccc3c(=O)c2c(=O)n1Cc1ccc(OC)cc1 | ? | ? | 10% | -23% | -2% | -2% | nt | nt
Cn1c(=O)n(C)c2cc(NC(=O)COc3ccc(F)cc3)ccc21 | nt | nt | 4% | -11% | -10% | -18% | nt | nt
Cc1nc(N2CCN(C(=O)c3cnccn3)CC2)c2c3c(sc2n1)CC(C(C)(C)C)CC3 (stereo unspecified) | 14%[46.1 µM] | 17% | 24% | 4% | 2% | -23% | nt | nt
O=S(=O)(c1ccc2c(c1)OCCO2)N1CCC(n2nnc3cc(C(F)(F)F)ccc32)CC1 | ? | -21% | -7% | ? | 3% | -16% | -5.9% | -6%
COc1ccc(C2CC(C(F)(F)F)n3nc(C(=O)O)cc3N2)cc1OC (stereo unspecified) | -6% | -16% | -11% | 10% | -3% | 18% | 3.4% | 2%
COc1ccc(NC(=O)C2=C(C)Nc3ncnn3C2c2ccc[nH]2)cc1 (stereo unspecified) | nt | 6%[46.1 µM] | nt | nt | nt | -9% | -3.2% | -9%
COc1ccc(OC)c2c(C)cc(N3CCN(C(=O)c4ccc(F)cc4)CC3)nc12 | ? | ? | -12% | -56% | nt | -11% | -16% | -4%
Cc1ccc(-n2ncc3c2CCCC3NC(=O)CCc2cnccn2)cc1C (stereo unspecified) | -15% | -4% | 6% | 3% | nt | -22% | nt | nt
O=C1c2ccccc2C(=O)N1CCCOc1ccccc1 | ? | 7% | -19% | -13% | -7% | 15% | 3.8% | -1%
C=C(C)COc1ccc(-c2[nH]ncc2-c2ccc(OC)cc2)c(O)c1 | nt | nt | -1% | -24% | -11% | -13% | nt | nt
N#C/C(=C/c1cn(Cc2ccccc2Cl)c2ccccc12)C(=O)Nc1cccc(Cl)c1 | nt | 11%[46.1 µM] | nt | nt | nt | -2% | -1.6% | 3.2µM*
CCOC(=O)N1CCC(NC(=O)c2cnn(-c3ccc(F)cc3F)c2C2CCN(C(=O)OC(C)(C)C)CC2)CC1 | nt | ? | nt | nt | nt | -9% | -0.9% | ?
Cc1cc(C(=O)Cn2nnc(-c3ccc(Cl)cc3)n2)c(C)n1CC1CCCO1 (stereo unspecified) | -19% | ? | 5% | 7.9µM* | 9% | nt | -5.5% | -11%
O=C(Nc1nc2ccccc2[nH]1)C1CCCO1 (stereo unspecified) | 6% | 9% | -4% | -4% | -8% | nt | -2.6% | -8%
COc1ccc(NC(=O)CSc2nc3ccncc3[nH]2)c(OC)c1 | ? | -11%[46.1 µM] | -6% | 13% | -4% | ? | -9.9% | -10%
CCn1cc(C(=O)N(C)Cc2ccc(OC(F)F)cc2)c(=O)c2ccc(C)nc21 | nt | nt | -2% | 2% | 0% | 5% | nt | nt
O=C(NC1CCCC1)C(c1ccc(F)cc1)N(C(=O)c1csnn1)C1CCCC1 (stereo unspecified) | 3%[46.1 µM] | -11% | -2% | 0% | -1% | 3% | nt | nt
CCn1c(SCC(=O)Nc2cc(C)c(Cl)cc2OC)nnc1-c1ccco1 | ? | -6% | 8% | -40% | -12% | ? | -4.8% | ?
N#CCSc1ccccc1NC(=O)CN1C(=O)C(=O)N(Cc2ccccc2)C1=O | -1% | -10% | 17% | nt | -1% | 8% | nt | nt
N#Cc1ccccc1COC(=O)CCN=C1NS(=O)(=O)c2ccccc21 | -2%[46.1 µM] | 6%[46.1 µM] | 7% | nt | 0% | -5% | nt | nt
Clc1ccccc1-c1nc(-c2cccnc2)no1 | 7% | ? | ? | -51% | nt | 24% | -8.6% | -1%
CCOC(=O)C1C(=O)NC2(C)CC1c1cc(OC)ccc1O2 (stereo unspecified) | 5% | 0% | 8% | -5% | 3% | nt | 3.1% | 5%
COc1ccc(/C=N/Nc2ccc([N+](=O)[O-])cc2)cc1Cn1cc([N+](=O)[O-])cn1 | 5% | -16% | 0% | 2% | 11% | ? | -1.6% | 20µM*
CCOC(=O)c1c(C)[nH]c(C(=O)COC(=O)c2c(CC)noc2C)c1C | -1%[46.1 µM] | ? | 1% | nt | -9% | -20% | nt | nt
COc1ccc(/C=C/C(=O)NC(=S)N2C[C@H]3C[C@H](C2)c2cccc(=O)n2C3)cc1 | nt | nt | 8% | 16% | -2% | 18% | nt | nt
CCOC(=O)N1CCC(NC(=O)CS(=O)Cc2nc(-c3ccc(C)cc3)oc2C)CC1 (stereo unspecified) | nt | nt | -5% | 18% | 5% | -6% | nt | nt
O=C1NC(=S)SC1=C1CCCCCC1 | 16% | 0% | ? | -200% | -24% | 8% | -8.1% | -13%
Cc1noc(-c2ccccc2OCC(=O)Nc2ccccc2[N+](=O)[O-])n1 | -2%[46.1 µM] | ? | nt | nt | nt | -26% | -2.6% | 3%
O=C(NCc1ccccc1F)C1CCCN1C(=O)NCc1ccccc1 (stereo unspecified) | -11% | 6% | 18% | -2% | 3% | 14% | 4.6% | -6%
CCCSCCCNC(=O)Cn1nc(CC)n2c(cc3c(OC)cccc32)c1=O | nt | nt | -5% | 6% | 1% | -3% | nt | nt
CC1=NNC(=O)C1C(c1ccccc1)C(C#N)C#N (stereo unspecified) | -24% | 2% | 13% | 4% | -5% | -21% | -3.7% | -6%
CN(C)C(CNC(=O)c1cccc(S(=O)(=O)N2CCN(c3ccc(F)cc3)CC2)c1)c1ccccc1 (stereo unspecified) | ? | ? | -5% | nt | nt | ? | nt | nt
NC(=O)CC[C@H](NC(=O)c1ccc(F)cc1)C(=O)OCC(=O)Nc1c(F)c(F)c(F)c(F)c1F | 5% | 20% | 34% | 12% | 1% | -9% | 28µM* | 13µM*
CCOCCCNC(=O)CCc1ccc(S(=O)(=O)Nc2ccc(C)cc2)cc1 | -20%[14.2 µM] | 23% | 14% | nt | 1% | 34%[activator] | nt | nt
COc1cccc(-c2nc(CS(=O)(=O)CC(=O)Nc3ccccc3Cl)c(C)o2)c1 | -28%[46.1 µM] | -4%[46.1 µM] | 6% | 13% | ? | -20% | nt | nt
CC(C)CN(C(=O)COC(=O)CCc1nc2ccccc2s1)c1c(N)n(Cc2ccccc2)c(=O)[nH]c1=O | ? | -16% | 6% | nt | -6% | 18% | nt | nt

Screening results (PubChem BioAssay)
